Screens from PubChem.
B2AR ag: agonists of human beta-2 adrenergic receptor inducing internalization; P07550; Am2.2-beta2AR cells, FAP receptor internalization, flow cytometry; reference of the scale not given here; response, % (concentration not given with the values); 340,000 tested, 0.43% active;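 active means response above a set limit, near 3 SD of response in nonfluorescent compounds, cut at about 42% in these data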;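 further: stock transfer was 100 nL into about 11 µL; a reference agonist was the positive control; negative values mostly stem from fluorescent compounds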
Target sequence (P07550 whole entry, looked up): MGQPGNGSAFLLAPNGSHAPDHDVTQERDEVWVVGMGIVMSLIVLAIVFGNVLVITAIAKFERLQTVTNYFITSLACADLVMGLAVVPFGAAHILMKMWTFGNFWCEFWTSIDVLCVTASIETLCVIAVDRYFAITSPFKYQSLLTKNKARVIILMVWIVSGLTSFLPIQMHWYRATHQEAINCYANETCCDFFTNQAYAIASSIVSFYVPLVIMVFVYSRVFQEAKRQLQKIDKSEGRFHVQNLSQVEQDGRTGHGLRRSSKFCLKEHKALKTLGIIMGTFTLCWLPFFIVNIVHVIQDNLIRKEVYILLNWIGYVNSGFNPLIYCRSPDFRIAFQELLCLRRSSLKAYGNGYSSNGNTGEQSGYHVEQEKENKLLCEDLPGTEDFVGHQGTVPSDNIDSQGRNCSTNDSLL
UCH37 DUB inh: human UCH37 deubiquitinating enzyme inhibition. inhibition, % (no concentration beside the values). Q9Y5K5. AID 588478. purified proteasome/UCH37, Ub-AMC cleavage fluorescence. 330,000 tested, 0.33% active;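 active means mean of two replicates above 20%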;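 further: 0% = compound-free wells with enzyme and 100% = wells lacking proteasome; stock transfer was 100 nL into about 20 µL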
Target sequence (Q9Y5K5 whole entry, looked up): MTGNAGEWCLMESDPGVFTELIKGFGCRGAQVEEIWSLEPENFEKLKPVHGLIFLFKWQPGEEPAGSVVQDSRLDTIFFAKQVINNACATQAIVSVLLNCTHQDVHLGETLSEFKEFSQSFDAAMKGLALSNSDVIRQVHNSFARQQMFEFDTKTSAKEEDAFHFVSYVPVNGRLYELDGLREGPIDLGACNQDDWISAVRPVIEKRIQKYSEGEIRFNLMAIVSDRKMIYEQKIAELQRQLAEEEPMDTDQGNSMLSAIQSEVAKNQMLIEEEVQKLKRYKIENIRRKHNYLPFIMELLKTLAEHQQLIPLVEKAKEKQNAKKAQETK
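Signal – fluorescence, ex 355 nm, em 460 nm · System – Proteasome-bound UCH37 · Input – 0.15 nM proteasome as dispensed · Timing – 30 min preincubation with enzyme, 25 min cleavage at room temperature · Read-out basis – percent inhibition of cleavage signal versus uninhibited and no-proteasome wells · Medium – Tris-HCl pH 7.4 with ATP-MgCl2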
Numbers without * were called inactive.

Sample of the layout:
SMILES	B2AR ag	UCH37 DUB inh
COc1cc(C2CC(=O)Oc3cc(C)c(Br)c(C)c32)cc(OC)c1OC (stereo not given)	-1.6	1.2
O=C1c2c(Cl)c(Cl)c(Cl)c(Cl)c2C(=O)N1c1nccs1	1.2	-0.1
N#C/C(=C/c1ccc(-c2ccc([N+](=O)[O-])cc2)o1)C(=O)Nc1nc(-c2cccs2)cs1	2.9	10.4
CCc1ccc(-c2nnn(CC(=O)N(C3CCCC3)C3CCS(=O)(=O)C3)n2)cc1 (stereo not given)	-3.5	2.2
CCn1c(SCC(=O)Nc2sccc2C(N)=O)nnc1C1CC1	3.0	0.4
c1ccc2sc(N3CCCCC3)nc2c1	-8.0	0.3

This part in full, previewed entries included:
SMILES	B2AR ag	UCH37 DUB inh
COc1cc(C2CC(=O)Oc3cc(C)c(Br)c(C)c32)cc(OC)c1OC (stereo not given)	-1.6	1.2
O=C1c2c(Cl)c(Cl)c(Cl)c(Cl)c2C(=O)N1c1nccs1	1.2	-0.1
N#C/C(=C/c1ccc(-c2ccc([N+](=O)[O-])cc2)o1)C(=O)Nc1nc(-c2cccs2)cs1	2.9	10.4
CCc1ccc(-c2nnn(CC(=O)N(C3CCCC3)C3CCS(=O)(=O)C3)n2)cc1 (stereo not given)	-3.5	2.2
CCn1c(SCC(=O)Nc2sccc2C(N)=O)nnc1C1CC1	3.0	0.4
c1ccc2sc(N3CCCCC3)nc2c1	-8.0	0.3
CCc1cccc(OCCOC(=O)CNS(=O)(=O)c2ccc(NC(C)=O)cc2)c1	4.1	-1.1
CCCn1c(SC(C)C(=O)NC2CCCC2)n[nH]c1=O (stereo not given)	-2.2	1.4
CC(C)=CCc1ccc(O)c(=O)cc1C(C)C	10.1	-15.4
CC(=NNC(=O)c1ccncc1)c1ccccc1Cl	-1.4	4.5
COc1cc(NC(=O)COC(=O)Cn2cnc3c2c(=O)n(C)c(=O)n3C)cc(OC)c1	-0.1	-2.5
CC(=O)OCC(=O)C1(O)CCC2C3CCC4C(OC(C)=O)C(=O)CCC4(C)C3C(=O)CC21C (stereo not given)	-1.4	3.1
Cc1ccc(S(=O)(=O)NCCC(=O)NCCc2ccccc2)cc1	3.2	2.2
N#Cc1cccc(C(=O)Nc2ccccc2C(=O)NC2CC2)c1	-3.8	1.5
O=C(COC(=O)c1ccccc1)c1ccc(S(=O)(=O)N2CCCCC2)cc1	-3.9	2.7
O=C(c1cc(C2CC2)nn1-c1ccccc1)N1CCN(S(=O)(=O)c2ccccc2)CC1	3.7	5.0
O=C(Cn1cnc2scc(-c3ccc(F)cc3)c2c1=O)NCC(c1ccco1)N1CCCC1 (stereo not given)	-1.0	-1.4
COc1ccc(C(=O)NCC(c2ccccc2)c2ccccc2)cc1S(=O)(=O)N1CCOCC1	-7.9	0.0
CCCCN1CC(Br)C(=O)NC1=O (stereo not given)	10.1	1.8
Cc1ccc(CNc2ncnc3c2cnn3C2CCCCO2)cc1 (stereo not given)	-61.1	1.0
CSc1ccccc1NC(=O)CN1C(=O)C2CC=CCC2C1=O (stereo not given)	-3.2	-0.4
COC(=O)[C@]1(C)N[C@H](CN(C)S(=O)(=O)c2ccc(C)cc2)[C@@H]2C(=O)N(C)C(=O)[C@@H]21	5.8	4.3
CC(C)(C)C(=O)Nc1cc2nn(-c3ccccc3)nc2cc1Cl	6.2	-21.0
O=CNC1c2ccccc2CCc2ccccc21	-0.9	1.7
Cc1ccc(C(=O)NCN2CCN(c3ccccc3)CC2)cc1	-0.1	0.4
SMILES	B2AR ag	UCH37 DUB inh
CC(C)Oc1ccc(S(=O)(=O)N2CCOCC2)cc1NC(=O)C1=NN(c2ccccc2)C(=O)CC1	21.7	4.8
COc1ccccc1C(=O)NCC(=O)Nc1ccc2c(c1)OCO2	5.9	-0.7
CCCN=C1N(CC)C[C@@H]2[C@@H]3C(=O)N(Cc4ccccc4)C(=O)[C@@H]3[C@](C)(C(=O)OC)N12	-5.0	3.3
O=C(CC1C[C@H](C(=O)N2CCOCC2)[C@@]2(CCC3CCCC3)c3[nH]c4ccccc4c3CCN2C1=O)NCc1cccc(C(F)(F)F)c1 (stereo not given in full)	17.3	8.6
CCN(CC)C(=O)[C@H]1CC(CC(=O)NCCc2ccccn2)C(=O)N2CCc3c([nH]c4ccc(OC)cc34)[C@]12C (stereo not given in full)	-10.3	1.3
CCOc1ccc(NC(=O)CN(C)C(=O)C2CC(=O)N(CCc3ccc(OC)c(OC)c3)C2)cc1OCC (stereo not given)	-8.3	-1.1
NS(=O)(=O)c1ccc(CCNC(=O)c2ccc(Cl)c(S(=O)(=O)N3CCCCCC3)c2)cc1	15.6	2.9
Cc1ccc(CNC(=O)COC(=O)c2ccc(S(=O)(=O)N3CCCCCC3)cc2)cc1	-6.9	0.5
CCOC(=O)C(=O)Cc1cccnn1	6.4	0.2
CN1C[C@@H]2[C@@H]3C(=O)N(Cc4ccccc4)C(=O)[C@@H]3[C@](C)(C1=O)N2C(=O)c1ccccc1	-4.0	2.1
COc1cc(C2C=C(c3cccs3)Nc3ncnn32)cc(OC)c1OC (stereo not given)	26.6	-13.2
CC(NC(=O)CSC(=S)N(C)C)C12CC3CC(CC(C3)C1)C2 (stereo not given)	-8.3	6.3
COc1ccc(S(=O)(=O)N2CCN(C)CC2c2ccccc2)cc1OC (stereo not given)	-4.5	2.9
Cc1c([N+](=O)[O-])cc(N2C(=O)C=CC2=O)cc1[N+](=O)[O-]	1.5	4.7
COc1ccc(-c2noc(CCC(=O)N3CCN(c4ccccc4C)CC3)n2)cc1	-5.6	-1.3
O=C(Nc1ccc2ccccc2c1)c1ccccc1[N+](=O)[O-]	-1.3	-38.8
CC12CCC(=O)C=C1CCCC2=O (stereo not given)	2.8	1.2
CCCCCCCC(=O)C(C)C(=O)N(C)[C@H](Cc1ccc(OC)cc1)C(=O)N(C)[C@H](C(N)=O)C(C)C (stereo not given in full)	-7.3	1.5
Nc1ccc(C(=O)Nc2ccc3c(O)cc(S(=O)(=O)O)cc3c2)cc1	-0.9	3.9
COc1ccc(Br)c(C(=O)OCC(=O)N2CCC(Cc3ccccc3)CC2)c1	-5.9	2.8
O=C1CCC/C=C\C[C@@H](CC(=O)N(CCO)Cc2ccccc2)C(=O)N[C@H](Cc2c[nH]c3ccccc23)CO1	4.7	2.7
CC(=O)N(CC(=O)N(CC(=O)O)c1ccc(Cl)cc1)c1ccc(Cl)cc1	-1.5	1.8
COc1cccc(NC(=O)CN(C)C(=O)Cc2ccc3c(c2)OCCO3)c1	1.2	-1.5
O=C(Cc1cccc(NC(=O)C2CCN(C(=O)C3CCCCC3)CC2)c1)Nc1cccc(C(=O)N2CCOCC2)c1	-5.1	-1.5
Nc1ncnc2c1ncn2[C@@H]1O[C@H](CNC(=O)[C@@H]2CCC(=O)N2)[C@@H](O)[C@H]1O	-1.4	-2.9
SMILES	B2AR ag	UCH37 DUB inh
N#CCSc1ccccc1NC(=O)CN1C(=O)C2CC=CCC2C1=O (stereo not given)	-119.3	0.8
CCOc1ccc(NS(=O)(=O)c2cccc(C(=O)N3CCN(C/C=C/c4ccccc4)CC3)c2)cc1	1.9	5.1
Cc1cn(C2CCCCO2)c(=O)[nH]c1=O (stereo not given)	-0.2	0.7
Cc1ccc(S(=O)(=O)N2C[C@@H]3CCCC[C@@H]3[C@@H](C)[C@H]2CC(=O)c2ccccc2)cc1	23.0	0.0
O=C1N[C@@H](c2ccccc2)COC(=O)[C@H](Cc2ccc(F)cc2)C/C=C\C[C@H]1CC(=O)N(CCO)Cc1ccccc1	3.3	1.1
CCN(C(=O)CSc1nnc(-c2ccccc2C)n1C)c1c(N)n(Cc2ccccc2)c(=O)[nH]c1=O	8.6	1.7
CCCc1nc2c(=O)n(C)c(=O)nc-2n(C)n1	80.0*	99.9*
C[C@@H]1CC=C[C@@H]2[C@H]1C(=O)N(Cc1ccccc1)[C@H]2c1ccccc1Br	3.6	2.4
CC(C)(C)S(=O)(=O)N1Cc2ccc(CO)cc2[C@@H]1CCO	-2.4	2.7
CCc1ccccc1NC(=O)C1=CN2CCS(=O)(=O)N=C2C=C1	-1.2	-4.4
CS(=O)(=O)c1ccccc1C(=O)N1CCN(S(=O)(=O)c2ccc(C3CCCCC3)cc2)CC1	-4.6	1.7
O=c1cc(-c2ccco2)oc2ccccc12	-5.2	-168.6
O=CNc1c(Br)cc2c(c1Br)Cc1cc(Br)ccc1-2	5.5	4.7
CN(C)S(=O)(=O)c1cccc(COC(=O)CNC(=O)c2ccc(Br)o2)c1	2.4	2.2
CCN(CC)S(=O)(=O)c1cc(C(=O)Nc2cc(S(=O)(=O)N3CCOCC3)ccc2N2CCCC2)ccc1F	2.5	4.9
O=C(COC(=O)CCCN1C(=O)c2cccc3cccc(c23)C1=O)NC1CCS(=O)(=O)C1 (stereo not given)	9.6	-139.9
Cc1cc2oc(=O)cc(-c3ccccc3)c2c(C)c1-c1ccc(C#N)cc1	11.4	0.8
O=C(NCc1ccncc1)c1cccc(S(=O)(=O)Nc2ccc(F)cc2)c1	-1.1	1.1
N#CC1c2ccccc2C=CN1C(=O)N(c1ccccc1)c1ccccc1 (stereo not given)	13.7	4.4
Cc1cc(C(C)(C)C)cc(C)c1CCNC(=O)c1c(C)noc1C	-2.7	5.1
Cc1cc(C)c2c3c(c(-c4ccccc4)n2n1)c(=O)n(C)c(=O)n3C	1.0	7.5
CC[C@]12c3[nH]c4cc(CCC(=O)N(C)C)ccc4c3CCN1C(=O)[C@@H](CC(=O)NCCCOC)C[C@@H]2C(=O)N1CCN(C(=O)c2ccco2)CC1	-4.2	0.5
C=C(CCO)C1=CCN(S(=O)C(C)(C)C)[C@@H]1CCO (stereo not given in full)	8.1	1.0
COc1ccccc1C(=O)NCCC(=O)N1CCN(S(=O)(=O)c2ccccc2C(F)(F)F)CC1	-1.6	5.0
O=C(NC(=S)Nc1cccc(NC(=S)NC(=O)c2ccccc2)c1)c1ccccc1	12.8	2.0
SMILES	B2AR ag	UCH37 DUB inh
Cc1cc(C(=O)COc2ccc(F)cc2Br)c(C)n1C1CC1	5.2	6.9
OCCN1CCSC1=S	1.8	2.1
CC[C@]12c3[nH]c4ccc(Cl)cc4c3CCN1C(=O)[C@@H](CC(=O)NCC13CC4CC(CC(C4)C1)C3)C[C@@H]2C(=O)N1CCN(C(=O)C2CC2)CC1	10.1	0.4
COc1ccc(C(CNC(=O)CNC(=O)c2cc(OC)c(OC)c(OC)c2)N2CCOCC2)cc1 (stereo not given)	-2.2	0.2
CC(C=NNC(=O)C(=O)NN=CC(C)=Cc1ccccc1)=Cc1ccccc1	-3.1	-7.7
COc1ccc(CNC(=O)C(C)Sc2ccc(S(=O)(=O)N3CCOCC3)cn2)cc1 (stereo not given)	-1.7	1.4
COc1ccc(NC(=O)CCN(c2ccc(OC)cc2)S(=O)(=O)c2ccc(C)c(C)c2)cc1	-4.2	1.4
CN(C(=O)c1ccc(NC(=O)Cc2ccc(NC(=O)C3CCCN(C(=O)CCc4ccccc4)C3)cc2)cc1)C1CCCC1 (stereo not given)	5.8	1.8
Cc1ccc(S(=O)(=O)N(CCC(=O)N2CCOCC2)c2ccccc2)cc1	-3.2	1.6
CCOC(=O)C1=C(COC(=O)c2ccc(OC)c(S(=O)(=O)N3CCOCC3)c2)NC(=O)NC1C (stereo not given)	2.7	-1.5
CC1CC(C)(C)CC2(C1)NC(=O)N(CC(=O)N1CCN(Cc3ccc(C#N)cc3)CC1)C2=O (stereo not given)	-1.6	-0.1
NC(=O)C1CCCN(C(=O)CN2C(=O)NC(c3ccccc3)(c3ccccc3)C2=O)C1 (stereo not given)	1.1	0.6
O=C1CSc2ccccc2N1	1.4	1.7
O=[N+]([O-])c1cc(C=NN2CCCCCC2)ccc1Cl	2.1	2.1
Nc1ccc2[nH]c(=S)[nH]c2c1	-1.1	-1.3
CC1SC(C)C(=O)N(CC(=O)NC2CCCCC2)C1=O (stereo not given)	-1.6	-0.2
Cc1cccc(NC(=O)CNC(=O)c2cc(C3CC3)nn2-c2ccccc2)c1C	7.1	4.2
CN(C=O)c1ccc(CSc2ccccc2)cc1	-3.3	0.9
O=[N+]([O-])c1ccc(NN=C2CCCCC2)c([N+](=O)[O-])c1	-2.5	4.6
CC(=O)N1CCc2cc([N+](=O)[O-])ccc21	-2.4	12.7
O=S1(=O)[C@H]2C[C@H](CO)O[C@@]2(CO)CN1Cc1ccc(-c2ccc(F)cc2)cc1	-4.6	3.2
O=C(N[C@H]1C/C=C\C[C@H](CC(=O)N(CCO)Cc2ccccc2)C(=O)N[C@@H](c2ccccc2)COC1=O)OCC1c2ccccc2-c2ccccc21	-2.4	4.4
Cc1ccc(C(=O)NCC(c2ccc(F)cc2)N2CCOCC2)cc1S(=O)(=O)N1CCOCC1 (stereo not given)	2.3	3.7
O=[N+]([O-])c1ccc(NC2CCCCC2)nc1	-10.7	8.8
Nc1nccc(SCc2ccccc2)n1	6.6	-2.0
CC(=O)N1CCN(C(=O)c2cc3c(s2)CCCC3)CC1	4.2	-0.2
CCN(Cc1ccccc1)C(=O)COC(=O)Cc1c[nH]c2ccccc12	-7.5	2.9
CC[C@@H]1C(c2ccccc2)=NN(c2ccc(Br)cc2)[C@H]1C(=O)N1CCOC1=O	-0.5	-139.6
Cc1[nH]c(=O)n(C(C)C)c(=O)c1Br	-1.6	0.7

Pulled by compound from the entries so far (3):
SMILES	B2AR ag	UCH37 DUB inh
O=[N+]([O-])c1ccc(NN=C2CCCCC2)c([N+](=O)[O-])c1	-2.5	4.6
COc1ccc(NC(=O)CCN(c2ccc(OC)cc2)S(=O)(=O)c2ccc(C)c(C)c2)cc1	-4.2	1.4
CN(C(=O)c1ccc(NC(=O)Cc2ccc(NC(=O)C3CCCN(C(=O)CCc4ccccc4)C3)cc2)cc1)C1CCCC1 (stereo not given)	5.8	1.8

The list is partial; rates above refer to the full screens.
